Screening results from PubChem BioAssay.
Bfl-1 A1 inh: inhibitors of the anti-apoptotic protein A1, read as caspase activation; caspase activation, % (concentration not given with the values); actives 0.066% (n = 330,000); MEF A1-2A-BIM cells, Caspase-Glo 3/7 luminescence, 3 h; percent of clofoctol response, vehicle zero;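 active = over half of replicate activation scores above 10%, or exactly half above 10 with the replicate mean above 10; inconclusive = replicate mean below 10 yet half the replicates above 10; inactive = over half of replicates below 10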;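 also: wells of about 30 µL received 50 nL stock; many hits fall short of the cut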
Calb FLC: affects C. albicans growth with fluconazole; C. albicans CaCi-2 (fluconazole-resistant clinical isolate) + fluconazole, Alamar Blue growth, 48 h; growth inhibition, % (test concentration not listed); actives 0.57% (n = 300,000); AID 1979;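 active = most replicates above 75%; inconclusive = exactly half above 75%; inactive = most below 75%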;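 also: all wells also contain fluconazole at 8 µg/ml as a sub-toxic cotreatment; 0% = median of DMSO wells and 100% = median of geldanamycin control wells; wells of about 8 µL received 7.5 nL stock; the first replicate is given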
Beta apoptosis: beta cell apoptosis inhibition; AID 435005; actives 0.8% (n = 300,000); protection from apoptosis, % (concentration not given with the values); INS-1E cytokine-induced death, ATP luminescence, 48 h; percent of positive-control rescue, neutral wells zero;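 active = all replicates at 75% or more, or half of them and the mean; inconclusive = half reach 75% but not the mean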;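 also: 0% = cytokine-treated negative control wells and 100% = positive control rescue; higher means more ATP so stronger rescue from cytokine killing; wells of about 40 µL received 100 nL stock; the first replicate is given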
T cruzi repl: T. cruzi replication inhibition; AID 1885; actives 1.4% (n = 300,000); T. cruzi beta-gal in NIH3T3, luminescence, 90 h; inhibition, % (concentration not given with the values);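 active = mean inhibition across valid replicates above about 55%, limit read from the data; inconclusive = mean below that limit but half or more replicates reach it; inactive = mean below it, under half of replicates reach it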;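 also: signal also drops with host cell toxicity which is not excluded here; 0% = plate median of DMSO wells and 100% = zero luminescence signal; higher percent means less beta-gal luminescence so fewer parasites; stock transfer was 50 nL into about 50 µL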
B2AR ag: activates human beta-2 adrenergic receptor causing internalization. Am2.2-beta2AR cells, FAP receptor internalization, flow cytometry; reference of the scale not given here. actives 0.43% (n = 340,000). P07550. AID 504454. response, % (no concentration beside the values);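 active = response above a set limit, near 3 SD of response in nonfluorescent compounds, cut at about 42% in these data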;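 also: stock transfer was 100 nL into about 11 µL; a reference agonist was the positive control; negative values mostly stem from fluorescent compounds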
Target sequence (P07550 whole entry, looked up): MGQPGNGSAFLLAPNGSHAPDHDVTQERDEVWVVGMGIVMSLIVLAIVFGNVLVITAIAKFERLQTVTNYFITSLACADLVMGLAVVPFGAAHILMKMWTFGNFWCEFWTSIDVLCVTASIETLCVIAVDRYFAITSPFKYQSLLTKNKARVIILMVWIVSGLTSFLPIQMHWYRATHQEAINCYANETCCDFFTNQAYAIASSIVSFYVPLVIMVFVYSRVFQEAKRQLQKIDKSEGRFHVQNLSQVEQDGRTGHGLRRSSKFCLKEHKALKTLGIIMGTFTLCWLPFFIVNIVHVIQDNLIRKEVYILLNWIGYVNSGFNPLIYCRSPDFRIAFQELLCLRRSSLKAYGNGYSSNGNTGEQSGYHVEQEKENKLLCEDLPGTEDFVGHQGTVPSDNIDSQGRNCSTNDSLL
ALR inh: human ALR oxidase inhibition via reduced H2O2; P55789; purified ALR, DTT oxidation, H2O2 HRP-luminol luminescence; inhibition, % (concentration not given with the values); actives 3.8% (n = 290,000); AID 485317;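 active = mean and each replicate at 75% or more; inconclusive = only one of the two met; inactive = neither met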;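 also: stock transfer was 7.5 nL into about 7.5 µL; 0% = neutral wells and 100% = wells with inactivated enzyme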
Target sequence (P55789 whole entry, looked up): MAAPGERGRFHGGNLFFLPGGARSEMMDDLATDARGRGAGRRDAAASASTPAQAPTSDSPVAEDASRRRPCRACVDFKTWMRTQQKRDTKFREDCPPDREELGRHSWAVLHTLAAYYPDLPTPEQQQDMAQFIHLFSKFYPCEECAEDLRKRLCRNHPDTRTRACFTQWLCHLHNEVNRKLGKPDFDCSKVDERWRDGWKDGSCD
LANA-H2B inh: blocks KSHV LANA binding to histone H2A/H2B; Q9QR71; inhibition, % (no concentration beside the values); actives 0.6% (n = 320,000); cell-free LANA-H2A/H2B peptide, fluorescence polarization; in the data active = inhibition mostly above about 10%, no sharp cut-off; inactive = mostly below about 6.7%;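 also: stock transfer was 7.5 nL into about 10 µL; 0% = median of vehicle wells and 100% = median of positive control wells; one replicate is shown; the record names a cut of 25% in any replicate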
rRNA inh HTS: inhibitors of bacterial rRNA selective over humanized ribosomes; actives 1.6% (n = 350,000); GFP signal change (wild-type ribosome), % (concentration not given with the values); E. coli WT GFP vs humanized-ribosome RFP mutants, fluorescence, 24 h; stronger effect = lower value; DMSO median 0, no signal -100; AID 720706;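 active = significant combined selectivity score with lowered wild-type GFP, culture density cut under 30%, mutant RFP and density less affected; inactive = any of these conditions unmet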; also: one replicate is shown; some compounds called inactive have numbers as strong as hits
rRNA inh HTS OD600: further read-out of rRNA inh HTS, marked with its call; OD600 change, %; measured here: OD600 growth;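 optical density of the mix in the first replicate; 0 = DMSO median and -100 = no signal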
rRNA inh HTS RFP: further read-out of rRNA inh HTS, marked with its call; RFP signal change, %; measured here: RFP humanized mutant strains;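 first replicate; 0 = DMSO median and -100 = no signal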
The depositor's hits bear a star; ? = inconclusive; · = no result given. These rows are one share of the data; the hit share may differ from the screen's.

SMILES	Bfl-1 A1 inh	Calb FLC	Beta apoptosis	T cruzi repl	B2AR ag	ALR inh	LANA-H2B inh	rRNA inh HTS	rRNA inh HTS OD600	rRNA inh HTS RFP
C#CCOCCOCCOCCNc1nc(N2CCN(C(=O)CCCCCCCCCCNC(=O)[C@H]([C@@H](C)CC)n3cc(CCCCN=C(N)N)nn3)CC2)nc(N2CCN(C(=O)CCCCCCCCCCNC(=O)[C@H](CO)n3cc(CCCSC)nn3)CC2)n1	2.1	·	36.1	·	96.3*	-1.4	-5.5	·	·	·
COC(=O)c1cc2sccc2n1CC(=O)N1CCCc2ccccc21	2.0	1.6	-6.3	1.8	3.9	0.1	4.9	·	·	·
COC(=O)CCCC1=CC2=CC(=O)C(C)(OC(=O)c3cnc4ccccc4n3)C(=O)C2=CO1 (stereo not drawn)	-0.6	3.6	2.9	-1.7	·	-12.4	6.7	·	·	·
COc1nccnc1NS(=O)(=O)c1ccc(NC(=S)NC(=O)c2ccccc2F)cc1	-6.2	2.9	3.6	-7.4	1.9	38.0	-7.5	-5.7	-3.8	-3.5
O=C(Nc1cccnc1)c1ccc(Cl)cc1[N+](=O)[O-]	-0.1	-3.8	-1.7	-14.5	0.8	-9.4	-1.5	2.9	1.8	2.5
O=C1CNC(=O)c2c(nc3n2CCC3)N1	1.2	4.3	1.5	-16.6	2.2	-0.1	1.1	7.1	13.6	-0.7
Cc1cc(C(=O)NNC(=O)Nc2cccc(C(F)(F)F)c2)no1	-0.1	-10.3	-1.5	0.5	0.2	0.3	0.1	7.2	9.2	1.6
O=C(NCc1ccccc1)NCC12CC3CC(CC(C3)C1)C2	-0.6	-24.2	7.4	-0.9	2.8	-7.3	13.4	6.2	3.4	-0.7
Cc1ccc(C(=O)Nc2cccc(C(F)(F)F)c2)cc1NC(=O)c1csc(-c2ccncc2)n1	0.8	0.4	3.6	48.0	90.6*	4.4	2.8	·	·	·
O=C1CCN(C(=S)NCCc2ccccc2)CC1	-0.1	-37.1	·	-11.0	-10.0	1.1	-3.5	1.7	2.3	-0.2
Cc1csc(SCc2nnc(-c3ccc(Cl)cc3)o2)n1	-0.3	4.1	-4.2	-17.5	-13.5	-10.9	-2.6	·	·	·
Cc1onc(-c2ccccc2Cl)c1C(=O)N1CCC(C(N)=O)CC1	·	-6.2	·	5.4	-0.9	·	·	4.1	3.5	-2.3
O=C(NC(c1ccccc1)c1ccccc1)C1CCCC1	0.4	1.2	4.2	-21.4	-4.3	-6.4	4.6	·	·	·
C=CCn1c(SCC#N)nc2sc(CC)cc2c1=O	-0.2	-14.4	-5.5	8.0	-4.5	·	-5.9	-6.0	-7.7	-1.4
Cc1ccc(-n2[nH]c(=O)c(-c3ccccn3)c2C)cc1	-0.4	?	4.9	-2.4	5.9	19.3	3.7	1.6	5.5	-1.1
N/C(=N\OC(=O)c1ccc([N+](=O)[O-])cc1Cl)c1ccccn1	-8.0	23.0	11.6	39.2	-13.4	·	-0.6	3.0	22.9	8.5
Cc1ccc(S(=O)(=O)NNC(=S)Nc2cccc(C)c2C)cc1	0.3	9.1	-8.1	-5.7	4.4	58.0	3.0	-8.3	-7.7	3.2
c1coc(-c2nnc(-c3cccs3)o2)c1	0.0	-19.9	-3.6	-15.4	-8.4	-13.1	-0.8	·	·	·
COc1cc(NC(=S)Nc2ccc(N(C)C(C)=O)cc2)cc(OC)c1	0.6	-11.5	4.4	-17.0	10.7	·	-0.6	-7.2	-2.2	-1.1
O=C(O)c1ccc2c(c1)ncn2C1CCCCCC1	0.2	10.2	-7.0	-9.6	0.4	-1.8	3.8	·	·	·
Cc1c(/C=C2\SC(=O)N(CC(=O)Nc3ccc4c(c3)OCO4)C2=O)c2ccccc2n1C	-0.5	6.3	4.3	20.5	5.1	-1.0	9.6	19.9	7.6	4.7
Cc1csc(N(C(=O)CCNC(=O)c2ccc([N+](=O)[O-])cc2)c2ccccc2)n1	1.3	-4.3	9.5	49.0	-11.0	0.8	-4.8	-0.9	0.6	-0.5
CCN1CCN(c2ccc(S(=O)(=O)N3CCOCC3)cc2N)CC1	-0.3	·	-1.1	·	-6.5	-3.7	1.0	10.5	16.1	-1.0
CCNc1nc(Oc2ccc(C#N)cc2)cc(C(F)(F)F)n1	0.6	-5.9	3.2	-9.8	-1.7	-9.0	1.9	15.4	11.8	1.1
c1ccc(Oc2cccc(Oc3ccccc3)n2)cc1	0.6	2.4	-2.6	-3.0	2.4	-1.2	6.5	·	·	·
COCCSc1nc2c(c(=O)[nH]c(=O)n2C)n1CCC(C)C	-0.5	3.1	4.6	1.7	-10.1	-1.6	6.9	4.0	4.4	-1.8
Cc1c(Cl)cccc1NC(=O)CSCc1cc(=O)[nH][nH]1	-0.5	-19.5	-3.0	3.2	0.1	22.0	-6.5	·	·	·
Cc1ccc(S(=O)(=O)C(C#N)c2nc3ccccc3nc2N2CCCC2)cc1C (stereo not drawn)	-0.9	·	-1.0	·	13.6	1.9	-9.1	2.1	-0.5	4.9
COC(=O)c1ccc(OCC2c3cc(OC)c(OC)cc3CCN2C(C)=O)cc1 (stereo not drawn)	-1.0	2.0	-1.6	-1.1	-2.1	-3.0	-4.0	7.6	1.1	1.0
COC(=O)CSc1nnc(-c2cccnc2)n1-c1cccc(OC)c1	1.0	7.7	1.5	-3.9	-7.6	-2.0	-1.3	9.1	7.6	-0.4
CCn1c(COc2ccc(C)cc2)nnc1SCC(=O)C(C)(C)C	0.9	20.4	-0.2	2.2	2.4	-0.2	2.9	·	·	·
C/C(CCC(C)C)=N\Nc1cc(C)c2ccccc2n1	0.2	1.7	-3.2	33.6	-0.4	-24.3	-4.1	6.2	-4.5	3.9
Cn1c(=O)c2c(ncn2CC(=O)N/N=C/c2cn[nH]c2-c2ccc(F)cc2)n(C)c1=O	-0.8	-5.5	-4.8	-11.4	-2.3	5.4	-0.5	19.0	12.5	1.2
Cc1c(-c2ccccc2)oc2c(C(=O)N3CCN(c4ccccc4F)CC3)cccc2c1=O	-0.2	43.7	5.5	16.9	-13.6	-69.5	1.4	·	·	·
CC(C)(C)c1ccc(COn2ccnc2)cc1	0.6	-9.9	-0.9	-8.5	1.2	·	2.2	-10.4	-28.6	-6.0
CC1=C(C)CS(=O)N(c2ccc(S(N)(=O)=O)cc2)C1 (stereo not drawn)	-0.6	-2.9	·	-23.3	7.3	73.3	-2.9	·	·	·
CCN1C(C)=C(C)S/C1=C1\SC(=S)N(N)C1=O	-0.1	7.9	-5.0	6.3	-5.9	·	-1.9	10.4	10.0	3.0
O=C(CSc1ccccc1)Nc1cccnc1	-1.5	-8.7	2.9	-3.3	3.5	-18.7	-2.4	·	·	·
COc1ccc(S(=O)(=O)N2CCC(C(=O)N[C@@H](C)C(=O)NCc3ccncc3)CC2)cc1	3.1	0.2	-8.3	-10.2	-3.8	-8.9	1.1	3.4	6.4	-1.0
NC(=O)c1cccc(-c2noc(-c3ccccc3F)n2)c1	-10.2	·	5.7	·	-0.7	-5.1	-3.2	18.6	0.3	-10.7
O=C(COC(=O)/C=C/c1ccc(Br)o1)Nc1ccccc1F	0.6	9.3	-1.7	-11.1	·	14.7	-4.9	·	·	·
C/C(=C/Cc1c(O)cc2oc(C)cc(=O)c2c1O)COC1OC(CO)C(O)C(O)C1O (stereo not drawn)	0.0	·	-22.3	·	13.4	·	-3.9	14.2	13.7	2.4
O=C(NC(=S)Nc1nc(-c2ccc(Cl)cc2)cs1)c1cccs1	-0.5	-15.7	3.4	1.6	-4.5	·	-0.8	7.5	1.0	0.9
Cc1cccn2c(=O)nc(SCC(=O)N3CCCC3)nc12	0.1	-9.0	·	2.7	-8.9	-1.2	0.9	5.1	9.6	-2.0
COC(=O)CCC(C)N1CCC(Oc2ccc(C(=O)N3CCCC3)cc2)CC1 (stereo not drawn)	-0.9	-7.0	-1.2	-17.6	-6.0	-8.2	-2.7	16.6	18.2	3.9
Cc1cccc(N(C(=O)c2csnn2)C(C(=O)NC2CCCCC2)c2ccncc2)c1 (stereo not drawn)	0.4	13.8	2.8	?	2.3	0.0	2.0	2.0	8.3	-0.6
Clc1ccc(Nc2ccc(-n3ccnc3)nn2)cc1Cl	-0.4	-0.7	3.3	13.0	-0.3	-0.1	-0.2	·	·	·
COc1ccc(CN2CCN(C(=O)c3ccco3)CC2)cc1OCc1ccccc1	-0.5	3.8	-2.0	30.2	-10.5	-2.7	5.4	·	·	·
O=C(O)c1ccccc1NCc1ccco1	0.1	25.2	-1.7	-5.8	-7.9	6.6	-0.3	16.9	18.9	-1.4
O=c1[nH]c(CN2CCCCC2)nc2c1C1(CCCCC1)Cc1ccccc1-2	1.2	3.3	-2.7	20.7	-20.0	-10.2	-1.1	·	·	·
Cc1nc2ccc(S(=O)(=O)NC(C(=O)NCc3ccc4c(c3)OCO4)C(C)C)cc2s1 (stereo not drawn)	-0.3	-15.7	-4.6	1.2	0.4	-37.3	-1.8	15.4	7.7	8.1
O=C(COC(=O)Cc1c(F)cccc1Cl)NCc1ccc2c(c1)OCO2	-0.3	·	-6.3	·	0.2	1.5	0.5	-16.8	-25.4	-0.3
CCOc1cc(C)nc(NCc2ccccc2)n1	0.9	-23.1	1.0	2.1	-8.5	-12.9	-0.5	·	·	·
COc1cccc(-n2nc(C(=O)NCC3CCCO3)c3ccccc3c2=O)c1 (stereo not drawn)	-0.9	2.4	-8.2	-3.3	-19.8	-6.2	-1.4	7.2	6.1	0.6
COc1ccccc1NC(=O)/C=C/c1cc([N+](=O)[O-])ccc1OC(F)F	0.2	2.7	-1.0	35.6	-4.0	-12.0	3.4	8.6	3.8	-4.6
CCCCN(C)CCCNC(=O)c1ccc2c(c1)N(CC)C(=O)c1ccccc1S2=O (stereo not drawn)	2.1	6.6	-3.1	60.7*	-4.3	-29.9	1.5	10.1	19.3	0.0
COc1ccc(CNC(=O)COC(=O)CCCOc2ccc(Cl)cc2Cl)cc1OC	-0.1	29.6	-4.6	-4.7	8.8	-27.0	3.4	·	·	·
CSc1ncccc1C(=O)OCC(=O)NCCC1=CCCCC1	-0.2	5.0	-0.9	-0.6	-0.6	·	-0.6	0.1	-1.3	-0.3
CCN(CC)CC(O)CN1c2ccccc2Sc2ccccc21 (stereo not drawn)	1.4	-11.4	7.2	2.5	7.0	98.5*	5.3	-5.0	6.7	-3.0
COCCn1c(SCC(=O)Nc2ccc(NC(=O)c3ccco3)c(OC)c2)nc2ccccc2c1=O	0.6	12.4	1.8	-0.2	13.8	-4.4	9.0	6.0	10.8	-1.0
NC(N)=Nc1nc(C2COc3ccccc3O2)cs1 (stereo not drawn)	0.9	15.7	-2.1	32.8	4.2	4.8	-1.9	-13.8	-17.1	-2.1
